GPR55 antagonists: GPR55 antagonists blocking LPI-driven arrestin recruitment, primary screen, imaging, U2OS, beta-arrestin-GFP, LPI agonist (AID 2013); U2OS GPR55 beta-arrestin-GFP translocation imaging, LPI antagonism; higher % means a stronger effect; inhibition, % at 10 µM; hits with a dose series show IC50 in µM; 290,000 compounds, 0.13% hits;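 active means spots per cell inhibited over 60%, with over 100 cells counted and total cytoplasm intensity under 500,000; inconclusive means wells with under 100 cells, flagged as likely toxic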;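 further: U2OS cells stably carrying GPR55 and arrestin-GFP stimulated by 5 µM LPI near EC80; imaged beta-arrestin-GFP aggregate spots per cell after agonist stimulation; plate controls were LPI-stimulated DMSO wells for no effect and DMSO wells without LPI for full effect; some results filed as inactive read as strong as hits; confirmed hits need IC50 under 10 µM and bright autofluorescent wells are also inconclusive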
GPR55 beta-arrestin: GPR55 agonists via beta-arrestin recruitment, primary screen, imaging, U2OS cells, beta-arrestin-GFP redistribution (AID 1961); U2OS GPR55 beta-arrestin-GFP redistribution imaging; higher % means a stronger effect; activation, % at 10 µM; hits with a dose series show EC50 in µM; 290,000 compounds, 0.048% hits;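 active means activation above 40% with more than 50 cells counted in the well; inconclusive means wells holding fewer than 50 cells, flagged as toxic or sparse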;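 further: U2OS osteosarcoma cells stably expressing GPR55 and beta-arrestin-GFP; plate controls were DMSO negative control for no effect and LPI positive control for full effect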
KOR beta-arrestin-1: kappa opioid receptor activators – cell-based, luminescence, uHTS, primary screen (AID 1777); KOR beta-arrestin recruitment, luminescence; higher % means a stronger effect; activation, % at 10 µM, or EC50 in µM where a hit was titrated; 280,000 compounds, 0.02% hits; in the data active means activation above about 50%, passing the limit was not always enough; further: a part of the inactive calls stands beside numbers as strong as those of hits
MgcRacGAP inhibition: MgcRacGAP GTPase-activating activity inhibitors, confirmation, biochemical, ADP Hunter fluorescence; 340,000 compounds, 0.6% hits; MgcRacGAP-stimulated Rac1 GTP hydrolysis, ADP Hunter fluorescence; higher % means a stronger effect; GST-tagged Rac1 F28L mutant substrate; AID 624330; inhibition, % at 30 µM, or IC50 in µM where a hit was titrated;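 active means first-screen hits whose inhibition reached a set limit at any dose in the follow-up dose series; inconclusive means inhibition above the set first-screen limit but never retested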;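 further: fluorescence reports GDP produced by GAP-driven GTP hydrolysis; strong numbers were not always called active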
HIV fusion peptide: cell-free HIV fusion peptide-binding blockers – biochemical, uHTS, fluorescence dequenching, primary screen (AID 1986); 290,000 compounds, 0.3% hits; cell-free peptide binding, fluorescence dequenching, 30 min; higher % means a stronger effect; one-dose inhibition, % at 20 µM; IC50 in µM for titrated hits; in the data active means inhibition mostly above about 52%, no sharp cut-off; inactive means mostly below about 76%; further: some results filed as inactive read as strong as hits
SV40 large T antigen: SV40 large T antigen inhibitors, biochemical (AID 1903); inhibition, % at 20 µM; hits with a dose series show IC50 in µM; SV40 large T antigen ATPase/helicase inhibition assay; higher % means a stronger effect; 310,000 compounds, 0.39% hits; in the data active means a potency from the dose series; inconclusive means inhibition mostly from about 32% at the one dose, without a potency; inactive means the rest, 99 in 100 with inhibition below about 32%; further: strong numbers were not always called active
KOR beta-arrestin-2: kappa opioid receptor blockers – cell-based, luminescence, uHTS (AID 1778); inhibition, % at 10 µM, or IC50 in µM where a hit was titrated; 290,000 compounds, 0.091% hits; KOR beta-arrestin recruitment, luminescence, antagonist mode; higher % means a stronger effect; in the data active means inhibition above about 50%; further: strong numbers were not always called active
Numbers without * were called inactive; ? = inconclusive; / = no result given; & = joins results of further samples; [ ] = remark or other dose.

SMILES	GPR55 antagonists	GPR55 beta-arrestin	KOR beta-arrestin-1	MgcRacGAP inhibition	HIV fusion peptide	SV40 large T antigen	KOR beta-arrestin-2
CCOC(=O)CC1CCCCN1C(=O)c1cc(COc2cccc3cnccc23)on1 (stereo not given)	4.4%	-0.2%	0.0%	5.6%	-1.1%	4.0%	-35.7%
CC1CC(C)CN(Cc2nc(N)nc(Nc3ccc4ccccc4c3)n2)C1 (stereo not given)	-0.2%	0.2%	0.0%	7.4%	-0.1%	11.4%	-14.0%
Cc1cc(C)cc(OCC(=O)OC/C(O)=C(\C#N)c2nc3ccccc3[nH]2)c1	-2.0%	-0.2%	26.0%	7.2%	5.5%	-1.3%	15.6%
C/C(=N\NC(=O)c1c(C)nc2ccccn12)c1ccc(O)cc1O	-2.5%	0.2%	8.8%	6.7%	-1.3%	-3.3%	-33.1%
CC(=O)c1c(C)[nH]c(C(=O)COC(=O)c2cccc(S(=O)(=O)N(C)c3ccccc3)c2)c1C	8.7%	-0.4%	1.3%	6.4%	4.2%	14.2%	/
COc1cccc2c1C(=O)c1c(O)c3c(c(O)c1C2=O)C[C@@](O)(C(=O)CO)C[C@@H]3O[C@H]1C[C@H](N)[C@H](O)[C@H](C)O1	32.9%	-0.2%	-4.8%	?	146.5%	11.8%&31.1%	16.1%
O=C(Nc1nnc(-c2ccc(F)cc2)o1)c1cccc([N+](=O)[O-])c1	8.0%	-0.1%	-8.2%	12.9%	13.9%	5.9%	61.9%
Cc1nc2c(C(=O)NCCC(C)C)c[nH]n2c(=O)c1Cc1ccccc1F	26.0%	-0.1%	-2.3%	2.5%	8.5%	10.8%	-8.1%
CCc1ccc(-c2nc(CSCC(=O)N3CCN(c4ccccn4)CC3)c(C)o2)cc1	-20.3%	0.0%	-1.4%	6.0%	-2.4%	2.7%	-20.4%
COc1ccc(CN2CN=C(Nc3nc4ccccc4s3)NC2)cc1	15.6%	-0.1%	-0.3%	9.1%	0.5%	9.0%	-11.2%
CC1CCc2nc(N)c(C#N)c(-c3cccnc3)c2C1 (stereo not given)	2.9%	0.4%	2.0%	6.8%	2.8%	22.3%	-16.1%
Cc1cccc(N(Cc2cc(=O)[nH]c3ccccc23)C(=O)CCl)c1	-3.0%	-0.1%	-0.5%	23.1%	-1.8%	1.8%	-8.7%
COC(=O)c1ccc(NC(=O)Cn2nc(-c3ccncc3)nc2SCC(=O)Nc2nccs2)cc1	17.5%	0.1%	-1.2%	-5.0%	2.8%	-4.8%	29.5%
CC1=C(C(=O)OCc2ccc3c(c2)OCO3)C(c2ccc(O)c([N+](=O)[O-])c2)NC(=O)N1 (stereo not given)	16.3%	0.0%	0.5%	10.7%	-1.9%	9.1%	-15.6%
O=[N+]([O-])c1cc(Br)c(O)c(/C=N/Nc2nc3ccccc3s2)c1	8.6%	-0.3%	2.8%	1.4%	58.2%	6.2%	-44.9%
COc1ccc(NC(=O)/C(Cl)=C(/Cl)S(=O)Cc2ccccc2)cn1 (stereo not given)	21.9%	0.2%	1.4%	36.5µM*	1.1%	23.9%	7.1µM*
Cc1ccc(C)c(S(=O)(=O)Nc2cc(SCC(=O)O)c(O)c3ccccc23)c1	16.1%	0.7%	2.4%	-130.0%	15.6%	?	2.8%
O=C(c1ccccc1)c1ccc2nc(-c3ccc(NC(=O)c4ccccc4F)cc3)[nH]c2c1	-6.8%	0.0%	1.2%	11.6%	8.7%	14.1%	-79.8%
CN(Cc1ccccc1)C(=S)NC(=O)c1ccc(-c2ccccc2)cc1	2.2%	-0.1%	2.3%	-15.1%	-1.2%	15.6%	10.5%
Nc1ncc(Br)cc1S(=O)(=O)Nc1cc(C(F)(F)F)cc(C(F)(F)F)c1	18.9%	0.3%	11.1%	13.1%	59.9%	12.1%	-66.4%
CCOC(=O)COc1ccc2ccccc2c1/C=C/[N+](=O)[O-]	16.2%	22.1%	-3.3%	21.7%	0.6%	28.2%	3.7%
Cc1cc(NC(=S)Nc2ccccc2)ccc1Br	8.4%	0.2%	9.6%	7.0%	1.8%	-5.2%	-15.6%
O=C(Nc1nc(-c2cc(F)ccc2F)cs1)c1ccccn1	17.6%	0.1%	-1.0%	2.3%	1.1%	-0.3%	50.4%
COc1ccc(Br)cc1/C=C/C(=O)c1ccc(NC(C)=O)cc1	6.9%	0.1%	-0.7%	1.7%	0.4%	-1.6%	23.9%
Fc1ccc(CSc2nnc(-c3ccncc3)o2)cc1	12.5%	-0.1%	-10.1%	1.4%	1.5%	4.2%	-20.0%[20 µM]
CCNC(=O)/C(=C/c1ccco1)NC(=O)/C=C/c1ccccc1	17.4%	-0.1%	2.9%	4.7%	-2.3%	9.3%	-11.0%
CCCN(CCC)c1ncnc2nc[nH]c12	-4.9%	-0.2%	-3.4%	5.3%	-1.7%	-3.6%	10.3%
O=C(Nc1ccccc1C(=O)O)c1cc(S(=O)(=O)Nc2ccccc2)ccc1Cl	0.6%	-0.3%	5.3%	8.0%	8.4%	7.8%	-21.5%[20 µM]
O=C(COc1ccc(Br)cc1)Nc1ccc(Cc2ccncc2)cc1	-10.4%	-0.3%	1.3%	-3.8%	-1.5%	4.3%	-20.8%
CC1CCc2c(sc(NC(=O)CSc3ncn[nH]3)c2C#N)C1 (stereo not given)	5.1%	-0.2%	-5.3%	7.1%	-0.4%	10.7%	-22.7%
C=CC[n+]1c(-c2ccc(C)cc2)csc1Nc1ccc(NC(C)=O)cc1	2.7%	-0.7%	-2.4%	8.6%	-1.3%	10.0%	-0.1%
Cc1ccc2c(c1)[nH]c1c(N3CCN(Cc4ccccc4)CC3)ncnc12	-16.0%	0.0%	4.4%	47.8µM*	2.4%	14.4%	-33.1%
O=C(Nc1ccc(Cl)c(Cl)c1)Nc1ccc(Br)cc1F	0.8%	0.1%	1.2%	-1.6%	-1.4%	10.4%	-22.0%
CCCCN(CC)S(=O)(=O)c1ccc(C(=O)Nc2nnc(-c3cccs3)o2)cc1	19.9%	0.2%	2.5%	/	0.4%	4.2%	-11.2%
CCN(CC)c1ccc(N2C(=O)/C(=C\c3cccnc3)SC2=S)cc1	11.9%	-0.1%	-3.0%	9.1%	-1.1%	2.2%	-0.5%
COc1ccc2c(c1)c(C(C)=O)c(C)n2CCc1ccccc1	12.8%	0.3%	1.3%	13.8%	-1.7%	6.6%	7.4%
Cc1noc(C)c1COc1ccc(C(=O)NCC2CCCO2)cc1 (stereo not given)	9.6%	0.0%	1.9%	-0.1%	1.9%	7.3%	-6.6%
Cc1cc(C)cc(NC(=O)CSc2nnc(Cc3cccn3C)n2-c2ccc(F)cc2)c1	-0.3%	-0.3%	-0.2%	-2.8%	2.7%	4.9%	31.4%
CCOC(=O)C1=C(C)N=c2s/c(=C/c3cccc([N+](=O)[O-])c3O)c(=O)n2C1c1ccccc1 (stereo not given)	13.9%	0.0%	-2.1%	9.8%	33.7%	11.8%	5.6%
Cc1ccc(NC(=O)Nc2nnc(-c3ccncc3)s2)cc1C	10.9%	-0.1%	/	-5.8%	-1.6%	22.1%	-74.9%[20 µM]
Cc1ccc(NC(=O)c2ccccc2NS(=O)(=O)c2ccc(Cl)s2)cc1S(=O)(=O)N1CCOCC1	5.8%	0.0%	2.0%	6.3%	49.6%	9.1%	-87.9%
CC1Cc2cc(-c3csc(NC(=O)Cc4cccs4)n3)ccc2N1S(C)(=O)=O (stereo not given)	-1.7%	-0.1%	-3.4%	3.3%	0.7%	-4.0%	-7.2%
Cc1ccccc1NC(=O)c1ccc(N/N=C/c2ccccc2O)c([N+](=O)[O-])c1	56.7%	0.6%	0.5%	8.1%	-3.1%	3.3%	-3.6%
CC1C/C(=C\c2cccnc2)C(=O)/C(=C/c2cccnc2)C1 (stereo not given)	25.7%	0.2%	-2.2%	15.1%	5.8%	5.5%	31.3%
C=CCn1nc([N+](=O)[O-])nc1Sc1cccc2cccnc12	20.5%	-0.3%	4.8%	15.5%	41.3%	18.6%	37.8%
CC(C)(C)c1ccc(S(=O)(=O)/N=C2\C=C(NS(=O)(=O)c3ccccc3)C(=O)c3ccccc32)cc1	14.3%	-0.1%	-1.5%	11.7%	9.23µM*	23.2%	-38.3%
O=[N+]([O-])c1ccc(Oc2ccc(F)cc2)c2ccncc12	-0.8%	0.0%	-2.5%	4.8%	-3.6%	21.5%	-17.6%
O=C(/C=C/c1ccco1)Oc1cc(Br)cc(/C=N/NC(=O)c2ccccc2O)c1	11.9%	0.7%	-3.4%	-1.1%	30.7%	11.5%	-5.6%

Compounds listed so far with a COOH group (2):
SMILES	GPR55 antagonists	GPR55 beta-arrestin	KOR beta-arrestin-1	MgcRacGAP inhibition	HIV fusion peptide	SV40 large T antigen	KOR beta-arrestin-2
Cc1ccc(C)c(S(=O)(=O)Nc2cc(SCC(=O)O)c(O)c3ccccc23)c1	16.1%	0.7%	2.4%	-130.0%	15.6%	?	2.8%
O=C(Nc1ccccc1C(=O)O)c1cc(S(=O)(=O)Nc2ccccc2)ccc1Cl	0.6%	-0.3%	5.3%	8.0%	8.4%	7.8%	-21.5%[20 µM]

Structural class: those above containing an NH in an aromatic ring (eight)
SMILES	GPR55 antagonists	GPR55 beta-arrestin	KOR beta-arrestin-1	MgcRacGAP inhibition	HIV fusion peptide	SV40 large T antigen	KOR beta-arrestin-2
Cc1cc(C)cc(OCC(=O)OC/C(O)=C(\C#N)c2nc3ccccc3[nH]2)c1	-2.0%	-0.2%	26.0%	7.2%	5.5%	-1.3%	15.6%
CC(=O)c1c(C)[nH]c(C(=O)COC(=O)c2cccc(S(=O)(=O)N(C)c3ccccc3)c2)c1C	8.7%	-0.4%	1.3%	6.4%	4.2%	14.2%	/
Cc1nc2c(C(=O)NCCC(C)C)c[nH]n2c(=O)c1Cc1ccccc1F	26.0%	-0.1%	-2.3%	2.5%	8.5%	10.8%	-8.1%
Cc1cccc(N(Cc2cc(=O)[nH]c3ccccc23)C(=O)CCl)c1	-3.0%	-0.1%	-0.5%	23.1%	-1.8%	1.8%	-8.7%
O=C(c1ccccc1)c1ccc2nc(-c3ccc(NC(=O)c4ccccc4F)cc3)[nH]c2c1	-6.8%	0.0%	1.2%	11.6%	8.7%	14.1%	-79.8%
CCCN(CCC)c1ncnc2nc[nH]c12	-4.9%	-0.2%	-3.4%	5.3%	-1.7%	-3.6%	10.3%
CC1CCc2c(sc(NC(=O)CSc3ncn[nH]3)c2C#N)C1 (stereo not given)	5.1%	-0.2%	-5.3%	7.1%	-0.4%	10.7%	-22.7%
Cc1ccc2c(c1)[nH]c1c(N3CCN(Cc4ccccc4)CC3)ncnc12	-16.0%	0.0%	4.4%	47.8µM*	2.4%	14.4%	-33.1%

Compound activity from PubChem.

The list is partial; rates above refer to the full screens.
